High-throughput results from PubChem BioAssay.
CSC inhib: cancer stem cell inhibition; inhibition, % at 7.5 µM; 300,000 compounds, 1.1% hits; cancer stem cell-like cells viability, luminescence;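 active means mean at 75% or more and at least half the replicates too; inconclusive means mean and replicates disagree; tested in HMLE shEcad cells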;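 further: 0% = median of negative and 100% = median of positive control wells; the first replicate is given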
Env fusion inh: blocks HIV Env-driven cell-cell fusion | 360,000 compounds, 1.1% hits | HeLa-JRFL Env/CEM21 cell fusion, luciferase | inhibition, % at 12.3 µM;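 active means mean replicate inhibition score of at least 50 and every replicate individually at or above 50; inconclusive means only one of the two criteria met; inactive means mean below 50 and not all replicates reaching 50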;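 further: 0% = plate neutral controls and 100% = maraviroc near 300 nM; one replicate is shown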
Rce1 inh: blocks yeast Ras-converting enzyme; 290,000 compounds, 0.27% hits; yeast membranes, quenched prenylated peptide cleavage fluorescence; Q03530; calls only;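 active means fall in fluorescence gain of 50% or more versus controls, with final raw signal at or below 3038400; inconclusive means same 50% fall but final raw signal above 3038400; inactive means fall in fluorescence gain under 50%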;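 further: plate controls were neutral control wells for no effect and wells lacking membranes for full effect; tested at 10 µM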
Target sequence (Q03530 whole entry, looked up): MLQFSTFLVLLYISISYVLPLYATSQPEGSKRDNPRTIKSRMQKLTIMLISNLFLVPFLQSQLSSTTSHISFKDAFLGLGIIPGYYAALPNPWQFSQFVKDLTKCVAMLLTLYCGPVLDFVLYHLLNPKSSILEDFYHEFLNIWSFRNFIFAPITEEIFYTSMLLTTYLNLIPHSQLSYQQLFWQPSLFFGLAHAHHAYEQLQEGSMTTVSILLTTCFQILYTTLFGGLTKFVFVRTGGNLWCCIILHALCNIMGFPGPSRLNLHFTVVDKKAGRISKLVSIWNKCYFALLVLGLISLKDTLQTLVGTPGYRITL
eIF4H inh: inhibitors of RNA binding by human eIF4H. Q15056. eIF4H fluorescence polarization binding assay. inhibition, % at 35 µM. 290,000 compounds, 0.94% hits. AID 2012;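 active means 50% or more with normal probe brightness, or confirmed in later tests; inconclusive means above 50% with abnormal brightness, or retests that disagree; inactive means below 50% or failed in later tests; about a fifth of its hits are not listed in these tables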;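 further: calls also rest on retests at 20 µM and on dose response follow-up; 0% = protein and probe with vehicle and 100% = probe without protein; strong numbers were not always called active; many hits fall short of the cut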
Yeast UUG start: modulators of start codon recognition fidelity in yeast; S. cerevisiae UUG-firefly luciferase reporter, luminescence/redox ratio; activity score, % at 18.7 µM; 350,000 compounds, 0.13% hits; AID 602363;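 active means replicate mean at a twofold rise or more, about +100% in these data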;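 further: firefly luciferase made from a UUG start codon reports start codon fidelity; reporter light over untreated wells divided by growth signal over untreated wells; some hits fall short of that in this replicate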
PABP polyA inh: blocks human PABP binding to poly(A) RNA; inhibition, % at 35 µM; P11940; 290,000 compounds, 1% hits; fluorescence polarization;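 active means 50% or more with normal probe brightness, or confirmed in later tests; inconclusive means above 50% with abnormal brightness, or retests that disagree; inactive means below 50% or failed in later tests; about a fifth of its hits are not listed in these tables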;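 further: calls also rest on retests at 20 µM and on dose response follow-up; controls were probe without protein and protein plus probe with vehicle; some compounds called inactive have numbers as strong as hits; many hits fall short of the cut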
MT1-MMP act inh: blocks activation of human MT1-MMP; P50281; HT1080 RFP-PRO-GFP cells, GFP/RFP ratio fluorescence, overnight; percent of plate control window, DMSO zero; GFP/RFP ratio change, % at 20 µM; 360,000 compounds, 0.061% hits; AID 651647;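 active means GFP/RFP ratio change of at least 30% with cell ATP level not reduced by more than half and red fluorescence within 50% of control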; further: strong numbers were not always called active
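system = RFP-PRO-GFP reporter HT1080 cells | dosing = 20 µM single dose, 1% DMSO | timing = overnight cell settling, then overnight compound exposure, 37 °C, 5% CO2 | read-out basis = GFP/RFP fluorescence ratio | controls = DMSO and RFP-L50D-GFP cell wells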
eIF4H inh retest: further read-out of eIF4H inh, marked with its call; inhibition, %; compound at 20 µM; confirmation average;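 mean of two retest wells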
PABP polyA inh retest: also measured in PABP polyA inh; calls as there; inhibition, %; compound at 20 µM; confirmation repeats;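 mean of two retest wells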
MT1-MMP act inh RFP: further read-out of MT1-MMP act inh, marked with its call; RFP signal change, %; measured here: RFP expression control read;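 0 = vehicle wells; hits needed this value within 50% of zero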
* hit, by the source's call; i = inactive; ? = inconclusive; . = no result given.

SMILES	CSC inhib	Env fusion inh	Rce1 inh	eIF4H inh	Yeast UUG start	PABP polyA inh	MT1-MMP act inh	MT1-MMP act inh RFP	others
NC(=O)COC(=O)CCCc1c[nH]c2ccccc12	-8.2	.	i	-2.2	-16.1	1.7	9.3	9.4
CC(Oc1ccccc1)C(=O)N1CCN=C1SCc1ccc(F)cc1 (stereo unspecified)	-3.4	16.5	i	1.4	.	-15.4	5.5	0.1
Cc1ccc(Nc2nc3ccccc3c(=O)s2)cc1	-6.5	-15.7	i	-6.2	.	-1.0	2.6	4.3
COc1ccc(NC(=O)Cn2nnc(-c3ccccc3N)n2)cc1OC	-0.6	.	i	2.1	-14.3	3.4	-2.9	-2.5
O=C1NC2(CCCC2)C(=O)N1Cc1cc(=O)n2ccsc2n1	-3.1	1.8	i	22.5	.	18.3	.	.
CCOC(=O)c1cc(-c2ccccc2)nc2ccc(C)cc12	16.5	-14.9	i	5.3	-5.5	7.5	1.7	-0.8
Oc1ccc(Nc2nc(Cl)nc(NCc3ccco3)n2)cc1	0.2	-5.4	i	-9.6	.	10.2	-3.0	-4.7
Cc1ccc(C(=O)C2(C)C3c4cc(Br)ccc4OC(=O)C32C(=O)c2ccco2)cc1 (stereo unspecified)	-9.5	.	i	-1.7	-16.9	-2.8	0.6	3.9
N#Cc1ccc(-c2csc(NC(=O)c3cc(-c4cccs4)nc4ccccc34)n2)cc1	15.7	3.3	i	-1.4	1.5	0.4	6.9	1.5
C=CCN(C(=O)c1cc(C)cc(C)c1)C1(C(=O)Nc2ccccc2)CCN(C(C)C)CC1	4.1	-16.7	i	-2.2	-12.7	0.2	-2.5	-1.5
c1coc(-c2nnc(SCc3nc4ccccc4[nH]3)o2)c1	-7.1	.	i	32.9	.	44.0	-19.5	1.7
CCN(CC)CCNC(=O)/C(=N\O)c1ccccn1	-6.5	-6.1	i	1.4	.	-3.4	0.2	3.5
COc1cc(/C=C(\C#N)c2ccccn2)ccc1OCc1ccccc1	65.7	.	i	3.9	.	-5.7	-2.0	-0.6
CCc1ccccc1NC1=CC(=O)CC(C)(C)C1	-5.1	9.7	i	0.7	.	-8.7	0.6	3.0
COc1cc(-c2cnc3c(NC=O)cc(-c4ccc(S(C)(=O)=O)cc4)cn23)cc(OC)c1OC	.	-22.2	.	.	-31.5	.	1.2	-6.9
O=C(Cc1cccs1)Nc1nnc(SCc2ccc(Br)cc2)s1	4.3	-16.0	i	12.6	.	-9.7	0.3	0.3
O=C(COc1ccc(Cl)cc1)Nc1ccccc1Cl	-2.4	-24.6	i	-7.4	-15.3	11.3	5.6	0.6
CC(=O)Nc1cccc(C(=O)/C=C/c2ccco2)c1	-9.5	5.0	i	22.5	-29.9	14.2	-9.5	6.2
O=C(CC(C(=O)O)c1cccc(Br)c1)c1ccc(Cl)cc1 (stereo unspecified)	0.1	-6.8	i	-5.9	0.1	9.2	-1.8	4.5
CCOc1ccccc1NC(=S)/C(=C(\[O-])c1ccc2c(c1)OCCO2)[n+]1ccc(CC)cc1	-8.0	-34.9	.	-10.5	-19.5	22.6	-5.4	-9.2
COc1cc(C(F)(F)F)c(C(=O)N(C)c2ccc(Cl)cc2)cn1	-14.2	1.7	i	0.2	19.1	-5.6	4.3	4.4
CCCCSc1nc2c(c(C(F)(F)F)c1C#N)CCC2	20.7	-54.3	i	-4.2	-10.0	0.8	6.1	1.4
COc1ccc2sc(-c3ccc(SC)cc3)c(C#CC(C)(C)O)c2c1	105.0*	-20.6	.	.	10.5	.	2.5	-1.1
Nn1c(SCc2cn3ccsc3n2)nnc1-c1ccncc1	-2.0	-28.6	i	7.4	-4.4	-13.3	-5.8	-1.3
COc1cccc(C(c2c(N)[nH]c(=S)[nH]c2=O)c2c(N)[nH]c(=S)[nH]c2=O)c1	-6.4	-1.2	i	2.4	-11.8	20.1	0.3	9.4
Cc1c(C)n(CC(O)CN2C(=O)c3ccccc3S2(=O)=O)c2ccccc12 (stereo unspecified)	-5.0	-30.3	i	-10.7	-1.9	-1.1	-1.1	-1.4
Cc1ccc(/C=N/n2c(-c3ccco3)n[nH]c2=S)cc1	-1.8	4.9	i	-8.4	.	1.8	-0.7	-2.0
CCOC(=O)Cn1c(C)nc2ccccc21	-1.5	.	i	15.4	-4.9	7.7	0.6	-0.4
S=C(Nc1ccc(Cl)cc1)NC1CCN(Cc2ccccc2)CC1	5.6	9.7	i	10.7	.	0.5	5.9	-1.5
COC(=O)c1ccccc1S(=O)(=O)N1CCC(C(=O)NCc2ccccn2)CC1	.	11.1	.	.	-19.7	.	7.7	-1.0
CCc1ccc(C(C(=O)NCc2ccccc2)N(C(=O)c2csnn2)C2CC2)cc1 (stereo unspecified)	-10.5	11.9	i	-13.7	-21.2	4.8	-2.7	2.1
NS(=O)(=O)c1ccc(NC(=O)COC(=O)c2ccc(Cl)nc2)cc1	-17.1	-12.2	i	7.6	.	-12.6	3.0	2.4
Cc1ccc(OC(=O)c2ccccc2)cc1C	.	7.5	.	.	-13.6	.	0.1	1.4
C=CCNC(=S)NNC(=O)c1cccc(Br)c1	6.7	-22.6	i	6.2	.	0.9	-5.7	-4.0
O=C(CSc1nc(-c2cccs2)cc(C(F)(F)F)n1)NCCCn1ccnc1	3.9	.	i	-0.4	-12.8	9.7	-0.1	5.0
COc1ccc(C2=NN(C(=O)/C=C/c3ccccc3)C(c3ccccc3)C2)c(OC(C)=O)c1 (stereo unspecified)	47.3	-21.4	i	-14.2	-23.9	-3.9	-6.9	-10.5
Cc1ccc(-c2nnn(CC(=O)N(CC(=O)NC3CCCC3)c3ccc(F)cc3)n2)o1	1.2	-9.0	i	-3.3	-9.6	5.4	-4.9	-2.5
COc1ccc2c(c1)O[C@H](c1ccc3c(c1)OCO3)[C@@H](OC(=O)N[C@H]1CCCc3ccccc31)C2=O	26.1	.	.	88.4	.	-2.9	.	.	eIF4H inh retest=2.3;PABP polyA inh retest=1.6
O=C(NN=Cc1ccc2c(c1)CCC2)c1ccccc1[N+](=O)[O-]	.	-19.4	.	.	-15.2	.	-3.9	-6.6
CCCCc1ccc(NC(=O)C(=O)NCCN2CCN(C(=O)c3ccc([N+](=O)[O-])cc3)CC2)cc1	13.7	29.4	i	8.0	-5.8	-2.4	-0.5	-13.9

Not a retest: an excerpt of the list.
SMILES	CSC inhib	Env fusion inh	Rce1 inh	eIF4H inh	Yeast UUG start	PABP polyA inh	MT1-MMP act inh	MT1-MMP act inh RFP	others
NC(=O)COC(=O)CCCc1c[nH]c2ccccc12	-8.2	.	i	-2.2	-16.1	1.7	9.3	9.4
CC(Oc1ccccc1)C(=O)N1CCN=C1SCc1ccc(F)cc1 (stereo unspecified)	-3.4	16.5	i	1.4	.	-15.4	5.5	0.1
Cc1ccc(Nc2nc3ccccc3c(=O)s2)cc1	-6.5	-15.7	i	-6.2	.	-1.0	2.6	4.3

Sorted by number of heavy atoms (descending): some entries from above.
SMILES	CSC inhib	Env fusion inh	Rce1 inh	eIF4H inh	Yeast UUG start	PABP polyA inh	MT1-MMP act inh	MT1-MMP act inh RFP	others
CCCCc1ccc(NC(=O)C(=O)NCCN2CCN(C(=O)c3ccc([N+](=O)[O-])cc3)CC2)cc1	13.7	29.4	i	8.0	-5.8	-2.4	-0.5	-13.9
COc1ccc(C2=NN(C(=O)/C=C/c3ccccc3)C(c3ccccc3)C2)c(OC(C)=O)c1 (stereo unspecified)	47.3	-21.4	i	-14.2	-23.9	-3.9	-6.9	-10.5
Cc1c(C)n(CC(O)CN2C(=O)c3ccccc3S2(=O)=O)c2ccccc12 (stereo unspecified)	-5.0	-30.3	i	-10.7	-1.9	-1.1	-1.1	-1.4
CCCCSc1nc2c(c(C(F)(F)F)c1C#N)CCC2	20.7	-54.3	i	-4.2	-10.0	0.8	6.1	1.4
C=CCNC(=S)NNC(=O)c1cccc(Br)c1	6.7	-22.6	i	6.2	.	0.9	-5.7	-4.0
CCOC(=O)Cn1c(C)nc2ccccc21	-1.5	.	i	15.4	-4.9	7.7	0.6	-0.4

(listing goes on)
SMILES	CSC inhib	Env fusion inh	Rce1 inh	eIF4H inh	Yeast UUG start	PABP polyA inh	MT1-MMP act inh	MT1-MMP act inh RFP	others
OCCNCc1cccc(OCc2ccc(Cl)cc2)c1	13.6	1.3	i	3.6	-24.6	-4.5	0.8	-2.9
Cc1ccc2cc(C#N)c(N3CCCN(C(=O)C4CCCO4)CC3)nc2c1C (stereo unspecified)	14.4	?	i	93.8*	-17.0	106.8*	-19.8	6.9
Cc1ccc(CNC(=O)c2nccnc2C(=O)O)cc1	-9.1	-0.7	i	8.9	.	21.6	2.2	5.4
O=Cc1ccc(C(=O)OCC(=O)NC(=O)Nc2ccccc2F)cc1	-7.2	.	.	.	5.5	.	-3.4	0.2
Brc1ccc(CN2C3=NCCCN3c3ccccc32)cc1	-0.2	9.1	i	1.1	.	5.4	-4.2	-4.1
CCOC(=O)c1sc(=NC(=O)c2ccc(S(=O)(=O)N3CC(C)OC(C)C3)cc2)n(C)c1C (stereo unspecified)	-4.5	-13.4	i	-1.2	-11.4	1.4	2.2	0.8
CC1(C)CC(=O)C=C(c2cccc3c2Oc2ccccc2S3)C1	8.2	?	.	.	-22.0	.	-0.3	-4.7
O=C(N/N=C/C(Br)=C/c1ccccc1)c1ccccc1[N+](=O)[O-]	49.5	-1.7	i	-12.7	-7.9	-3.1	-1.8	-5.2
CC(=O)N1[C@@H]2CC3C4CC=C5C[C@@H](O)CC[C@]5(C)C4CC[C@]3(C)[C@@]21C(C)=O (stereo partly specified)	1.2	14.6	i	-4.0	-0.7	-5.4	1.3	-1.5
Cc1ccc(C(=O)CC2(O)C(=O)N(Cc3ccccc3Cl)c3ccccc32)o1 (stereo unspecified)	5.2	.	i	-8.9	2.1	-0.5	3.9	-4.4
CCOC(=O)N1CCN(CC(=O)Nc2ccc(F)cc2F)CC1	-0.3	3.0	i	10.6	-2.7	-9.2	-2.0	0.1
CCN(CC)CCOC(=O)C1(c2ccc(OC)c(OC)c2)CCCC1	-4.7	.	i	-14.8	.	2.0	-4.9	2.4
OC[C@@H]1CN(Cc2ccc(-c3ccccc3)cc2)C[C@H](n2cnc3c(NCc4ccco4)ncnc32)O1	.	43.3	.	.	-1.6	.	15.0	-22.1
COc1ccc(C(=O)N2CCC(NC(=O)C(Cc3ccccc3OC)NC(C)=O)CC2)cc1 (stereo unspecified)	.	2.0	i	-21.4	-9.6	-0.7	-3.1	0.5
COc1cc(/C=N/n2cnnc2)ccc1OCc1ccccc1	-3.9	-37.6	i	-7.9	-17.9	7.2	-5.4	2.4
CC1CC2(CCCC2)N(C(=O)N(C)C)c2ccc(F)cc21 (stereo unspecified)	-1.2	3.0	i	-4.1	-10.4	1.8	1.6	1.4
C#CCNC(=O)C1=C[C@@H](c2ccc(C#C)cc2)C[C@@H](OCc2ccc(CO)cc2)O1	7.7	-6.0	i	.	-11.7	.	1.2	-0.1
COc1ccc(/C=N\Nc2ccccc2[N+](=O)[O-])c(C(=O)O)c1OC	2.8	-2.2	i	2.6	-14.7	11.4	11.9	2.3
COC(=O)C1=C(C)NC(=O)NC1c1ccc(-c2ccccc2Cl)o1 (stereo unspecified)	-0.1	4.9	i	-2.3	.	10.2	-5.9	-1.7
CC(C)NC(=O)C(=O)NCCC1CCCCN1S(=O)(=O)c1cccs1 (stereo unspecified)	-19.1	-80.5	i	.	-5.9	.	9.2	-0.3
